PD-1 reversal – activators reversing PD-1 mediated T-cell inhibition, primary screen, luminescence, primary human CD4 T cells, PD-L1 beads. CellTiter-Glo 96 h. activation, % (concentration not given with the values). 29,000 tested, under 10 active. AID 2316, 2010;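 active means replicate mean of 50% or more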;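 further: 0% = median vehicle wells and 100% = positive control; 100 nL library stock added to about 50 µL; numbers are from one replicate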
MITF inh – inhibitors of MITF, primary screen, MITF inhibitor project, cell-based, luminescence. TRPM1 promoter luciferase, 24 h. inhibition, % (concentration not given with the values). 37,000 tested, 0.28% active;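 active means most replicates at 85% or more, or half of them and the mean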;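 further: human melanocyte line stably carrying TRPM1 promoter luciferase reporter; 0% = vehicle wells and 100% = a positive control; the first replicate is given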
YB-1 expr inh – inhibitors of YB-1 gene expression, primary screen, cell-based, fluorescence. U2OS, qRT-PCR YB-1 vs CDIP delta delta Cp, 16 h; active compounds read high; zero = DMSO, each unit about twofold. 30,000 tested, 0.37% active. delta delta Cp (YB-1 minus CDIP) (no concentration beside the values);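 active means delta delta Cp rounded down to an integer at or above 3, about 3 SD of DMSO wells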;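 further: higher means less YB-1 transcript or more CDIP transcript relative to DMSO; stock transfer was 100 nL into about 100 µL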
Shh pathway inh – Hedgehog pathway signaling inhibitors, primary screen, luminescence, Shh-LIGHT2 cells, Gli-luciferase; Shh-LIGHT2 Gli-luciferase reporter, 30 h; inhibition, % (no concentration beside the values); 22,000 tested, 2.1% active;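 active means replicate mean of 65% or more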;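 further: pathway switched on by Shh-conditioned medium diluted 1 in 25 in low serum; 100 nL library stock added to about 40 µL; 0% = median of neutral wells and 100% = positive control level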
The depositor's hits bear a star; · = not tested or not shown. Some of the compounds tested; rates above refer to the full screens.

SMILES	PD-1 reversal	MITF inh	YB-1 expr inh	Shh pathway inh
Cc1ccc(S(=O)(=O)Nc2ccc3c(c2)C(=O)N([C@@H](C)CO)C[C@H](C)[C@H](CN(C)Cc2ccc4c(c2)OCO4)O3)cc1	-2.4	6	-0.0076	·
CC(C)NC(=O)N(C)C[C@H]1Oc2ccc(NC(=O)Cn3cnnn3)cc2C(=O)N([C@@H](C)CO)C[C@@H]1C	2.6	-7	-0.79	·
C[C@H](CO)N1C[C@H](C)[C@H](CN(C)S(=O)(=O)c2ccccc2)Oc2ccc(NC(=O)Cc3cn(C)c4ccccc34)cc2CC1=O	2.5	15	-0.0045	18
CNC[C@@H]1Oc2ccc(NC(=O)C3CC3)cc2CC(=O)N([C@@H](C)CO)C[C@@H]1C	0.4	-3	0.23	-15
C[C@@H]1CN([C@H](C)CO)C(=O)c2cccc(NC(=O)c3nc4ccccc4s3)c2O[C@H]1CN(C)Cc1ccc2c(c1)OCO2	-4.9	41	-0.13	-18
CC(C)NC(=O)Nc1ccc2c(c1)CC(=O)N([C@@H](C)CO)C[C@@H](C)[C@@H](CN(C)C)O2	0.3	-9	0.2	5
CN(C)CCCNc1oc(-c2ccccc2F)nc1C#N	2.9	2	·	·
C[C@H]1CN([C@@H](C)CO)C(=O)c2cccc(NC(=O)c3cnccn3)c2O[C@@H]1CN(C)CC1CC1	1.2	-9	-0.3	-8
C[C@@H]1CCCCO[C@H](CN(C)C(=O)Nc2ccc(C(F)(F)F)cc2)[C@@H](C)CN([C@H](C)CO)C(=O)c2cc(NC(=O)C3CCCCC3)ccc2O1	-4.3	8	-0.18	24
COc1cccc(-c2cc(C(F)(F)F)n3nc(C(=O)Nc4cc(C)nn4-c4ccccc4)cc3n2)c1	-0.9	48	·	·
COc1ccc(-c2cc(=O)c3c(O)c(OC)c(O)c(OC)c3o2)cc1	0.5	-43	-0.14	-21
O=C(O)CNC(=O)CN1C(=O)c2ccccc2C1=O	0.8	-14	·	·
COc1ccc(S(=O)(=O)Nc2ccc3c(c2)C(=O)N([C@H](C)CO)C[C@H](C)[C@H](CN(C)C(=O)Nc2ccccc2)O3)cc1	-4.3	-5	-0.37	·
COC(=O)c1c(NC(=O)C(C)C)sc2c1CCC2	0.3	2	-0.11	35
CCCCCCC/C=C/C(=O)CCc1ccc(O)c(OC)c1	-0.3	5	0.27	-3
Cc1ccc(S(=O)(=O)Nc2cccc3c2O[C@@H](CN(C)C)[C@H](C)CN([C@@H](C)CO)C3=O)cc1	1.4	6	-0.11	-96
COc1ccccc1NC(=O)CNS(=O)(=O)c1ccc(C)cc1	-0.9	0	·	·
COc1cccc(OC)c1C(=O)N(Cc1nc(-c2ccc(Cl)cc2)no1)C(C)C	-1.4	-1	·	·
O=C(Cn1nc(-c2cccc([N+](=O)[O-])c2)c2ccccc2c1=O)Nc1ccc(F)cc1	-0.5	3	·	·
C[C@@H]1CN([C@@H](C)CO)C(=O)Cc2cc(NC(=O)Cn3cnnn3)ccc2O[C@@H]1CN(C)Cc1ccc(Cl)c(Cl)c1	0.6	-18	0.21	-13
Cc1ccc(S(=O)(=O)Nc2ccc3c(c2)C(=O)N([C@H](C)CO)C[C@H](C)[C@@H](CN(C)Cc2ccc(C(=O)Nc4ccccc4N)cc2)O3)cc1	-1.4	-1	-0.036	·
O=C(Cc1ccccc1[N+](=O)[O-])NCc1ccco1	-1.3	-4	·	·
COc1ccc(CN(C)C[C@H]2Oc3ccc(NC(=O)Nc4ccc(F)cc4)cc3CC(=O)N([C@@H](C)CO)C[C@@H]2C)cc1	0.7	-6	0.39	·
C[C@H]1CN([C@@H](C)CO)C(=O)c2cc(NC(=O)NC3CCCCC3)ccc2O[C@@H]1CN(C)C(=O)Nc1ccccc1	·	-4	-0.21	·
COc1ccc(CN(C)C[C@@H]2Oc3ccc(NC(=O)Cc4cn(C)c5ccccc45)cc3C(=O)N([C@H](C)CO)C[C@H]2C)cc1	0.0	8	-0.11	-6
Cc1c(NC(=O)COc2ccc(C(C)C)cc2)cccc1C(=O)O	1.7	-62	·	·
O=C(CSc1ncnc2sc3c(c12)CCCC3)N1CCC(c2noc3ccc(F)cc23)CC1	-0.2	33	·	·
COC(=O)C1=C(C)NC(C)=C(C(=O)OC)C1C	1.6	-12	-0.18	11
C[C@@H]1CCCCO[C@H](CN(C)C(=O)Nc2cccc3ccccc23)[C@@H](C)CN([C@H](C)CO)C(=O)c2cc(NS(=O)(=O)c3ccc(F)cc3)ccc2O1	-3.8	22	0.28	22
C[C@@H]1CN([C@H](C)CO)C(=O)c2cc(NC(=O)Nc3ccc4c(c3)OCO4)ccc2O[C@H]1CN(C)C	0.5	6	-0.28	·

Looked up by structure from the entries so far (three):
SMILES	PD-1 reversal	MITF inh	YB-1 expr inh	Shh pathway inh
CNC[C@@H]1Oc2ccc(NC(=O)C3CC3)cc2CC(=O)N([C@@H](C)CO)C[C@@H]1C	0.4	-3	0.23	-15
O=C(O)CNC(=O)CN1C(=O)c2ccccc2C1=O	0.8	-14	·	·
C[C@H]1CN([C@@H](C)CO)C(=O)c2cc(NC(=O)NC3CCCCC3)ccc2O[C@@H]1CN(C)C(=O)Nc1ccccc1	·	-4	-0.21	·

(next part)
SMILES	PD-1 reversal	MITF inh	YB-1 expr inh	Shh pathway inh
Cc1noc(C)c1NC(=O)Nc1cccc2c1O[C@H](CN(C)S(=O)(=O)c1ccc(F)cc1)[C@@H](C)CN([C@@H](C)CO)C2=O	2.6	-6	0.079	-46
Cc1ccccc1-c1noc(CCC(=O)Nc2cccc(C)c2C)n1	-0.2	8	·	·
C[C@@H]1CN([C@@H](C)CO)C(=O)c2cccc(NS(=O)(=O)c3ccc(Cl)cc3)c2O[C@@H]1CN(C)Cc1ccncc1	-0.6	-7	0.6	35
Cc1ccc(S(=O)(=O)N(C)C[C@H]2OCCCC[C@@H](C)Oc3ccc(NS(=O)(=O)c4cn(C)cn4)cc3C(=O)N([C@H](C)CO)C[C@@H]2C)cc1	-0.3	3	-0.11	7
Cc1noc(C)c1S(=O)(=O)Nc1cccc2c1O[C@@H](CN(C)S(C)(=O)=O)[C@@H](C)CN([C@@H](C)CO)C2=O	·	-3	0.17	-31
CC(=O)C(C#N)C(=O)Nc1ccc(OC(F)(F)F)cc1 (centres undefined)	5.0	23	0.053	-17
Cc1noc(C)c1S(=O)(=O)Nc1ccc2c(c1)C(=O)N([C@@H](C)CO)C[C@@H](C)[C@@H](CN(C)C(=O)Nc1ccc(C(F)(F)F)cc1)O2	-3.1	4	-0.33	-18
Cc1noc(C)c1S(=O)(=O)N(C)C[C@H]1Oc2ccc(NS(=O)(=O)c3cn(C)cn3)cc2CC(=O)N([C@@H](C)CO)C[C@@H]1C	·	7	0.066	-28
C[C@H]1CN([C@@H](C)CO)C(=O)c2cc(NS(=O)(=O)c3cn(C)cn3)ccc2O[C@H]1CN(C)C	·	-17	-0.45	·
C[C@H]1CN([C@@H](C)CO)C(=O)c2cc(NC(=O)Cc3cn(C)c4ccccc34)ccc2O[C@H]1CN(C)Cc1ccc(Cl)c(Cl)c1	-0.1	32	0.46	-17
C[C@H]1CN([C@@H](C)CO)C(=O)Cc2cc(NC(=O)CCC(F)(F)F)ccc2O[C@@H]1CN(C)S(=O)(=O)c1ccc(Cl)cc1	·	-9	-0.14	-12
C[C@@H]1CN([C@@H](C)CO)C(=O)c2cc(NC(=O)Nc3ccc(C(F)(F)F)cc3)ccc2O[C@H]1CN(C)C	-1.1	-15	0.056	-2
C[C@H](CO)N1C[C@H](C)[C@H](CN(C)Cc2ccc(Oc3ccccc3)cc2)Oc2ccc(NC(=O)Nc3ccc4c(c3)OCO4)cc2C1=O	1.8	5	0.3	·
Cc1ccc(S(=O)(=O)Nc2ccc3c(c2)CC(=O)N([C@@H](C)CO)C[C@H](C)[C@H](CN(C)Cc2ccc(C(=O)O)cc2)O3)cc1	0.6	-7	-0.19	·
NC(=O)c1ccccc1NC(=O)COc1cccc2ccccc12	-1.4	-26	·	·
C[C@H](CO)N1C[C@H](C)[C@H](CN(C)C(=O)Nc2cccc3ccccc23)Oc2ccc(NC(=O)C3CCCCC3)cc2CC1=O	-0.3	-2	0.025	-13
CC(C)NC(=O)Nc1cccc2c1O[C@H](CN(C)Cc1ccccc1)[C@H](C)CN([C@H](C)CO)C2=O	·	-16	0.063	28
O=C(CSc1nnnn1-c1ccccc1)Nc1cccc2nsnc12	1.6	-5	·	·
c1ccc(CNc2ncnc3nc[nH]c23)cc1	·	-17	-0.52	-34
C[C@H]1CN([C@@H](C)CO)C(=O)Cc2cc(NC(=O)Nc3ccc4c(c3)OCO4)ccc2O[C@H]1CN(C)Cc1ccncc1	0.4	9	0.07	-7
O=C(CCCN1CCN(c2ccccn2)CC1)c1ccc(F)cc1	·	-4	-0.13	20
COc1ccc(S(=O)(=O)N(C)C[C@H]2Oc3ccc(NS(=O)(=O)c4cn(C)cn4)cc3C(=O)N([C@H](C)CO)C[C@@H]2C)cc1	1.2	-2	0.19	-49
O=C(CCc1ccc(O)cc1)c1c(O)cc(O[C@@H]2O[C@H](CO)[C@@H](O)[C@H](O)[C@H]2O)cc1O	1.4	-9	1	16
C[C@H](CO)N1C[C@H](C)[C@H](CN(C)C(=O)Nc2cccc3ccccc23)Oc2c(NS(=O)(=O)c3ccccc3)cccc2C1=O	1.3	10	0.26	17
C[C@H](CO)N1C[C@H](C)[C@H](CN(C)CC2CCCCC2)Oc2ccc(NC(=O)Cc3ccccc3)cc2CC1=O	·	-17	0.35	·
Cc1ccc(F)c(NC(=O)CSc2nnnn2-c2ccccc2)c1	-0.3	-19	·	·
CNC[C@H]1Oc2ccc(NC(=O)Nc3c(C)noc3C)cc2C(=O)N([C@@H](C)CO)C[C@H]1C	-0.1	2	0.2	·
CC(Oc1ccc(Cl)cc1Cl)C(=O)Nc1cccc(NC(=O)c2ccc(Cl)cc2Cl)c1 (centres undefined)	1.0	-11	·	·
Cc1csc(Nc2ccc(F)c(Cl)c2)[n+]1C(C)C	1.6	0	-0.35	-7
Cc1ccc(S(=O)(=O)N(C)C[C@@H]2Oc3c(NC(=O)C4CCOCC4)cccc3C(=O)N([C@@H](C)CO)C[C@@H]2C)cc1	1.4	-24	-0.48	·
O=C(CSC1CC(=O)N(c2ccccc2F)C1=O)Nc1ccc(Cl)cc1 (centres undefined)	-2.3	-1	·	·
O=C(/C=C/S(=O)(=O)c1ccc(Cl)cc1)c1ccc(F)cc1	-58	10	0.21	39
Cc1noc(C)c1S(=O)(=O)Nc1ccc2c(c1)C(=O)N([C@H](C)CO)C[C@@H](C)[C@@H](CN(C)S(=O)(=O)c1ccccc1)O2	0.8	6	-0.14	10
Cc1ccc(S(=O)(=O)N(C)C[C@@H]2Oc3ccc(NC(=O)CCCCCC(=O)Nc4ccccc4N)cc3C(=O)N([C@H](C)CO)C[C@H]2C)cc1	-1.7	10	-0.24	·
COc1ccc(CN(C)C[C@@H]2Oc3ccc(NS(=O)(=O)c4c(C)noc4C)cc3C(=O)N([C@H](C)CO)C[C@H]2C)cc1	0.4	8	0.33	34
C[C@@H]1CN([C@@H](C)CO)C(=O)c2cc(NC(=O)Cc3cn(C)c4ccccc34)ccc2O[C@@H]1CN(C)C	·	3	0.053	-72
CC(NS(=O)(=O)c1ccccc1)C(=O)Nc1ccc(I)cc1 (centres undefined)	-0.8	15	·	·
C[C@@H]1CN([C@@H](C)CO)C(=O)c2cccc(N(C)C)c2O[C@@H]1CN(C)S(=O)(=O)c1ccc(F)cc1	-1.0	1	-0.098	-9
C[C@H]1CN([C@@H](C)CO)C(=O)c2cc(NC(=O)C3CC3)ccc2O[C@H]1CN(C)C(=O)NC1CCCCC1	-1.2	-11	-0.06	-19
Cc1ccc(S(=O)(=O)Nc2ccc3c(c2)C(=O)N([C@@H](C)CO)C[C@H](C)[C@@H](CN(C)Cc2ccc(C(=O)O)cc2)O3)cc1	0.7	-9	-0.18	·
C[C@H]1CN([C@@H](C)CO)C(=O)c2cc(N(C)C)ccc2O[C@@H]1CN(C)C(=O)Nc1ccc(F)cc1	-0.7	3	0.17	-5
COc1ccc(NC(=O)Nc2ccc3c(c2)CC(=O)N([C@@H](C)CO)C[C@H](C)[C@@H](CN(C)S(=O)(=O)c2ccc(Cl)cc2)O3)cc1	-1.2	9	-0.21	74*
CCCCc1c(-c2ccc(O)cc2)[nH]c2nccnc12	-3.0	22	3.3*	-15
Cn1c(SCC(=O)c2cc(C(C)(C)C)c(O)c(C(C)(C)C)c2)nnc1-c1cccs1	0.1	25	·	·
Cc1ccc(-c2nnc3c4ccccc4c(C)nn23)cc1S(=O)(=O)N1CCOCC1	-1.3	-45	·	·
COc1ccc(NC(=O)Nc2ccc3c(c2)CC(=O)N([C@H](C)CO)C[C@@H](C)[C@@H](CN(C)C(=O)Nc2ccc4c(c2)OCO4)O3)cc1	0.8	-9	0.16	·
